Assay outcomes: PubChem BioAssay, ICCB-Longwood Screening Facility, Harvard Medical School
Ba CapD inh: inhibitors of Bacillus anthracis CapD enzyme; purified CapD enzyme, fluorescence intensity read-out; stronger effect = lower value; some hits fall short of the stated cut; z-score (concentration not given with the values); actives 0.23% (n = 140,000); AID 492967;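 active means z-score under -4 in either of two replicates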;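 further: stock transfer was 100 nL into about 40 µL; score is relative to mean and spread of the plate; one replicate is shown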
AID504770: growth inhibitors of E. coli YBA685 in a screen for V. cholerae RctB (chromosome II replication) inhibitors. E. coli YBA685 rctB-dependent plasmid, OD600 growth, 3 h; stronger effect = lower value. z-score (no concentration beside the values). actives 0.27% (n = 130,000). AID 504770;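 active means z-score under -2 on both plates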;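 further: wells of about 30 µL received 100 nL stock; score is relative to mean and SD of the test wells; the first replicate is given; strong numbers were not always called active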
Active calls of the source: *; & = joins results of further samples.

Results for CC1(C(=O)O)NC(c2ccccc2O)C2C(=O)N(Cc3ccccc3)C(=O)C21 (stereo not given) ?
Ba CapD inh: -0.375

What do the screens show for `O=C(Nc1ccc(/C=C/c2nc3ccccc3s2)cc1)c1ccc(Cl)cc1`?
Ba CapD inh: 2.46

What do the screens show for `CCCOc1ccc(C(=O)Nc2c(NC)c3ccccc3oc2=O)cc1`?
Ba CapD inh: 0.575; AID504770: -0.7

How did CCn1c(C2CC(=O)N(C(C)(C)C)C2)nc2ccccc21 (stereo not given) do in these assays?
AID504770: 1.65

What do the screens show for `c1ccn2cc(C34CC5CC(CC(C5)C3)C4)nc2c1`?
Ba CapD inh: 27.2; AID504770: 0.55

How did CCOC(=O)N1CCC(Nc2nn3nnnc3c3ccccc23)CC1 do in these assays?
Ba CapD inh: 0.675; AID504770: 0.65

What do the screens show for `Cc1ccsc1CCNS(=O)(=O)c1ccc2[nH]c(=O)ccc2c1`?
Ba CapD inh: 0.365; AID504770: 0.85

Results for CC(C)Nc1ncnc2scc(-c3ccccc3)c12 ?
Ba CapD inh: -0.255; AID504770: -0.95

What do the screens show for `COc1ccccc1CNS(=O)(=O)c1cccs1`?
Ba CapD inh: 0.31; AID504770: -0.3

Results for COc1ccc(C2NC(=O)CS2)cc1 (stereo not given) ?
AID504770: -0.9

What do the screens show for `CC(C)=C1C(=O)Nc2ccc(S(=O)(=O)N(C)C3CCCCC3)cc21`?
Ba CapD inh: 0.58; AID504770: -0.7

Results for Cc1ccc(-n2cnc3cc(NCc4ccncc4)ccc32)cc1 ?
Ba CapD inh: 1.59; AID504770: -0.9

Six structures from above, ordered by molar mass, falling.
What do the screens show for `O=C(Nc1ccc(/C=C/c2nc3ccccc3s2)cc1)c1ccc(Cl)cc1`?
Ba CapD inh: 2.46

Results for CC1(C(=O)O)NC(c2ccccc2O)C2C(=O)N(Cc3ccccc3)C(=O)C21 (stereo not given) ?
Ba CapD inh: -0.375

What do the screens show for `CCCOc1ccc(C(=O)Nc2c(NC)c3ccccc3oc2=O)cc1`?
Ba CapD inh: 0.575; AID504770: -0.7

What do the screens show for `CC(C)=C1C(=O)Nc2ccc(S(=O)(=O)N(C)C3CCCCC3)cc21`?
Ba CapD inh: 0.58; AID504770: -0.7

How did CCn1c(C2CC(=O)N(C(C)(C)C)C2)nc2ccccc21 (stereo not given) do in these assays?
AID504770: 1.65

Results for CC(C)Nc1ncnc2scc(-c3ccccc3)c12 ?
Ba CapD inh: -0.255; AID504770: -0.95

Later entries
Results for O=C(CCC(=O)c1ccc(F)cc1)Nc1cccnc1 ?
Ba CapD inh: -0.2; AID504770: -1

Results for COc1cc(OC)c(OC)cc1/C=C1\N=C(c2cccc(Br)c2)OC1=O ?
Ba CapD inh: 0.99

What do the screens show for `Nc1nnnn1/N=C\C=C\c1ccccc1`?
Ba CapD inh: -0.05; AID504770: 0.45

How did CCn1c(COc2cccc(C)c2)nnc1SCC(=O)NC(C)(C)C do in these assays?
AID504770: 2.45

Results for CCOc1ncccc1C(=O)Nc1ccc(Cl)cc1 ?
Ba CapD inh: -0.835; AID504770: 1.95

Results for O=C(O)CSCC(=O)N1CCN(c2cc(C(F)(F)F)nc3ccccc23)CC1 ?
Ba CapD inh: -2.55; AID504770: -0.5

What do the screens show for `CN(Cn1nc(Nc2ccccc2F)sc1=S)C1CCCCC1`?
AID504770: -0.6

What do the screens show for `CN(C(=O)C1CCC(CNS(=O)(=O)c2cccc3cccnc23)CC1)C1CCCCC1` (stereo not given)?
Ba CapD inh: 18.7; AID504770: 0.15

What do the screens show for `Cc1ccc(CN2CCN(CCOC(=O)NC(C)c3cccc4c3OCCO4)CC2)s1` (stereo not given)?
Ba CapD inh: 0.3

How did C/C(=N\O)c1oc(C)nc1C do in these assays?
Ba CapD inh: 1.1; AID504770: 0.4

What do the screens show for `CC(C)(C)C(=O)OCc1nc(-c2ccc(F)cc2)cs1`?
Ba CapD inh: 0.77; AID504770: -0.1

How did CC(NCc1ccccc1)c1ccccc1O (stereo not given) do in these assays?
Ba CapD inh: 0.83; AID504770: -0.85

How did COc1cnc(-c2ccccc2)[nH]c1=O do in these assays?
Ba CapD inh: -0.21; AID504770: -0.15

How did O=C(O)CC(Sc1nc2sc3c(c2c(=O)[nH]1)CCCC3)C(=O)O (stereo not given) do in these assays?
Ba CapD inh: 0.215; AID504770: -0.25

What do the screens show for `COc1ccccc1N1C(=O)CC(SCC(=O)Nc2ccccc2)C1=O` (stereo not given)?
Ba CapD inh: -0.165; AID504770: -0.75

How did CN(C)/C=N/N=C/c1cc(Cl)cc(Cl)c1O do in these assays?
Ba CapD inh: 1.31; AID504770: -0.35

Results for O=C(CCc1c[nH]c2ccccc12)N(Cc1ccco1)Cc1cccs1 ?
AID504770: 0.15

What do the screens show for `O=C(Nc1ccc(Cl)cc1)C1CCc2ccccc2O1` (stereo not given)?
Ba CapD inh: -0.09

What do the screens show for `COc1ccc(N2C(=O)NC(=O)/C(=C/c3cc(Br)c(O)c([N+](=O)[O-])c3)C2=O)cc1`?
Ba CapD inh: -2.16

How did CCOC(=O)N1CCN(C(=O)C(C)C)CC1 do in these assays?
AID504770: -0.95

How did O=C1CC(c2cccnc2)Nc2ccc3ccccc3c21 (stereo not given) do in these assays?
AID504770: 0.4

Results for O=C(CSc1nnc(C2CCCCC2)o1)NN1C(=O)NC2(CCCCC2)C1=O ?
AID504770: -0.15

How did CSc1ncc(C#N)c2nc(-c3ccc(Cl)cc3)nn12 do in these assays?
Ba CapD inh: -0.44; AID504770: -0.4

How did CCN(C(=O)c1ccco1)c1nc(-c2ccccc2)cs1 do in these assays?
Ba CapD inh: -0.945; AID504770: -0.15

Results for COc1cccc(NC(=O)CC(C)NCc2nc3ccccc3[nH]2)c1 (stereo not given) ?
AID504770: 0.2

Results for C=CCn1c(-c2ccc(Cl)cc2)cnc1SCc1c(C)noc1C ?
AID504770: 1.75

How did O=C1c2ccccc2S(=O)(=O)N1CC(O)COc1ccc(Cl)cc1Cl (stereo not given) do in these assays?
Ba CapD inh: 0.32; AID504770: -0.2

What do the screens show for `CCOC(=O)c1ccccc1-c1csc(Nc2ccc(Cl)c(Cl)c2)n1`?
Ba CapD inh: -0.015

How did Cc1nc(Nc2ccc3[nH]c(=O)[nH]c3c2)nc(Nc2ccc3[nH]c(=O)[nH]c3c2)c1[N+](=O)[O-] do in these assays?
Ba CapD inh: -0.37

How did COc1cc2[nH]c(=O)n(CCCC(=O)N3CCN(c4cc(Cl)ccc4C)CC3)c(=O)c2cc1OC do in these assays?
Ba CapD inh: 1.15; AID504770: 0.2

What do the screens show for `COCc1cn2ccccc2n1`?
Ba CapD inh: 9.94; AID504770: -0.2

Results for COc1ccc(-c2nc3c4c5c(sc4ncn3n2)CCCCC5)cc1OC ?
Ba CapD inh: 2.73

How did O=C(c1cc2ccccc2s1)N1CCCN(c2ccc(C(F)(F)F)cn2)CC1 do in these assays?
Ba CapD inh: 0.445; AID504770: 1.45

How did Cc1ccc(S(=O)(=O)NCCc2nnc(SCc3ccccc3)n2C)cc1 do in these assays?
AID504770: 1.55

Results for COc1cc(C2C(C(=O)OCc3ccccc3)=C(C)NC3=C2C(=O)CC(c2ccccc2)C3)ccc1O (stereo not given) ?
Ba CapD inh: 12.2

How did CCOC(=O)c1sc(NC(=O)C2C3C=CC(C3)C2C(=O)O)nc1C (stereo not given) do in these assays?
Ba CapD inh: -0.12; AID504770: -0.9

Results for NC(=O)c1ccc(Nc2nc(=S)[nH]c3ccccc23)cc1 ?
Ba CapD inh: -0.03; AID504770: -0.4

Results for CCCc1cc(N2CCCCC2)n2c(nc3ccccc32)c1C#N ?
AID504770: -0.6

Results for FC(F)(F)c1ccc2cc(CSc3ccc(Cl)cc3)ccc2n1 ?
Ba CapD inh: 0.59; AID504770: 1.35

How did OCC(O)Cn1c(COc2ccccc2)nc2ccccc21 (stereo not given) do in these assays?
Ba CapD inh: 0.005; AID504770: -0.45

How did O=C(O)CN1C(=O)/C(=C\c2ccc(-c3ccc([N+](=O)[O-])cc3Cl)o2)SC1=S do in these assays?
Ba CapD inh: -0.115

Results for Cc1nc(=S)[nH]c(C)c1CCC(=O)O ?
AID504770: -0.25

What do the screens show for `Cc1ccc(S(=O)(=O)Oc2ccc(C3c4c(n(C)c(=O)n(C)c4=O)N=C4c5ccccc5C(=O)C43)cc2)cc1` (stereo not given)?
Ba CapD inh: 1.3

Results for COc1cc(OC)c(C2Nc3cccc4cccc(c34)N2)cc1OC ?
Ba CapD inh: 61.5

How did CSc1nc2ccccc2n1CC(=O)c1cc(C)n(C)c1C do in these assays?
AID504770: -1.3

Results for Cn1c(=O)c2c(nc3n(-c4ccccc4)c(-c4cccs4)cn23)n(C)c1=O ?
Ba CapD inh: 0.995; AID504770: 0.1

What do the screens show for `CCN1C2=C(C(=O)CC(C)(C)C2)C(c2ccc(OC)cc2)C2=C1CC(C)(C)CC2=O`?
Ba CapD inh: -0.75; AID504770: -0.4

How did CC(=O)CC(=O)c1c(C)[nH]n(-c2ccccc2)c1=O do in these assays?
Ba CapD inh: -0.735

In the list so far, these have a cyano group:
How did CSc1ncc(C#N)c2nc(-c3ccc(Cl)cc3)nn12 do in these assays?
Ba CapD inh: -0.44; AID504770: -0.4

Results for CCCc1cc(N2CCCCC2)n2c(nc3ccccc32)c1C#N ?
AID504770: -0.6

Further structures
What do the screens show for `N#Cc1c(-c2ccco2)c2c([nH]c1=S)CCCC2=O`?
AID504770: -0.2

Results for CCc1ccccc1N=CC12c3ccccc3C(c3ccccc31)C1C(=O)N(c3ccccc3Cl)C(=O)C12 (stereo not given) ?
Ba CapD inh: 0.07

Results for O=C(CSCc1ccc(Cl)cc1)c1cc2ccccc2o1 ?
Ba CapD inh: -0.19; AID504770: -0.55

What do the screens show for `O=C(N1CCCCCC1)N1CCN(C(=O)N2CCCCCC2)CC1`?
Ba CapD inh: -0.07; AID504770: -0.5

How did Cc1c(C(=O)NCc2ccc3c(c2)OCO3)oc2ccc3c(c12)C(O)CC1(CCCCC1)O3 (stereo not given) do in these assays?
Ba CapD inh: 13.3; AID504770: 0.4

Results for O=C(Nc1ccc(Cl)c(Cl)c1)c1nn2c(c1Br)NC(c1ccccc1)CC2C(F)(F)F (stereo not given) ?
Ba CapD inh: -0.45

How did O=C(Cc1nc2ccccc2[nH]1)c1ccc(F)cc1F do in these assays?
Ba CapD inh: 3.4; AID504770: 0.3

What do the screens show for `C[C@H](NS(=O)(=O)c1ccccc1)C(=O)Nc1nccs1`?
AID504770: -0.1

How did CCCc1nnc2n1N=C(c1ccc(Cl)cc1)CS2 do in these assays?
Ba CapD inh: 0.03&-0.125; AID504770: -0.1

Results for COc1cccc2cc(C(=O)N3CCN=C3c3ccccc3)c(=O)oc12 ?
AID504770: -0.2

What do the screens show for `c1cc(N2CCOCC2)ccc1Nc1nc2nonc2nc1Nc1ccc(N2CCOCC2)cc1`?
AID504770: -0.45

What do the screens show for `NNC(=O)c1ccc2c(=O)n3c(nc2c1)CCC3`?
AID504770: 0.15

Results for COC(=O)c1cc(S(=O)(=O)N(C)C2CCCCC2)cn1C ?
Ba CapD inh: 3.08; AID504770: 0.4

Results for CCOC(=O)c1c(NC(=O)c2nn3c(c2Br)NC(c2ccco2)CC3C(F)(F)F)sc2c1CCCC2 (stereo not given) ?
Ba CapD inh: 4

How did COC(=O)NCC12CC3CC(CC(C3)C1)C2 do in these assays?
Ba CapD inh: 0.915; AID504770: -0.75

Results for COc1cccc(N/C(SC)=C(/C#N)C(N)=O)c1 ?
Ba CapD inh: 0.49

What do the screens show for `Cc1ccccc1N1CCN(C(=O)OCCCCCc2ccccc2)CC1`?
Ba CapD inh: -1.12

How did CCNC(=O)N(CCCN1CCc2ccccc21)CCOC do in these assays?
Ba CapD inh: 1.73

How did Nc1c2c(nc3sc4c(c13)CCCC4)CCCC2 do in these assays?
AID504770: -1.45

Results for CCOC(=O)C1=C(C)Nc2nnnn2C1c1ccc(N(C)C)cc1 (stereo not given) ?
Ba CapD inh: -0.3

How did O=C(O)c1cc(O)c2c(c1)[C@@H]([C@H]1c3cc(C(=O)O)cc(O)c3C(=O)c3c(O[C@H]4O[C@H](CO)[C@@H](O)[C@H](O)[C@H]4O)cccc31)c1cccc(O[C@H]3O[C@H](CO)[C@@H](O)[C@H](O)[C@H]3O)c1C2=O do in these assays?
AID504770: -0.3

Results for Cc1ccc(S(=O)(=O)CCC(=O)OCN2C(=O)c3ccccc3C2=O)cc1 ?
AID504770: 0.2

What do the screens show for `O=c1nc(N2CCCC2)nc(N2CCCC2)[nH]1`?
AID504770: -0.75

Results for O=C(O)CC(SC(=NC1C=CCCC1)N1CCCCC1)C(=O)O (stereo not given) ?
Ba CapD inh: -0.22; AID504770: -0.75

At a glance, part of the list above.
Results for COC(=O)c1cc(S(=O)(=O)N(C)C2CCCCC2)cn1C ?
Ba CapD inh: 3.08; AID504770: 0.4

Results for CCOC(=O)c1c(NC(=O)c2nn3c(c2Br)NC(c2ccco2)CC3C(F)(F)F)sc2c1CCCC2 (stereo not given) ?
Ba CapD inh: 4

(further entries)
How did CCOC(=O)c1cc(S(=O)(=O)N2CC3CC(C2)c2cccc(=O)n2C3)cn1C (stereo not given) do in these assays?
Ba CapD inh: -0.135; AID504770: 0.7

What do the screens show for `CC(C)C1Cc2[nH]c(=O)c(C(=O)O)cc2CO1` (stereo not given)?
Ba CapD inh: -0.575; AID504770: 0.75

How did CN1CC=C2C(C(=O)O)=C(N)C(C#N)(C#N)[C@@H](c3ccncc3)[C@@H]2C1 do in these assays?
Ba CapD inh: 26.6; AID504770: -0.9

Results for O=C(NCC(=O)N1CCN(c2ccccc2)CC1)c1ccc(F)cc1 ?
Ba CapD inh: 0.5

What do the screens show for `CCN(CC)c1ccc2cc(C(N)=O)c(=Nc3ccccc3)oc2c1`?
Ba CapD inh: -3.08; AID504770: -0.9

Results for CS(=O)(=O)N1CCN(C(=O)CCC(=O)O)CC1 ?
Ba CapD inh: 0.69; AID504770: -0.35

Results for O=c1[nH]c2ccccc2c(=O)n1CCc1nc(-c2ccccc2)no1 ?
Ba CapD inh: 1.39; AID504770: -0.65
